Source: PubChem BioAssay
D2 PAM = positive allosteric modulators of human D2 dopamine receptor. P14416. DiscoveRx D2 beta-arrestin cells, luminescence, 90 min; 100% = 57 uM dopamine signal. potentiation, % (concentration not given with the values). actives 0.23% (n = 360,000). AID 624464; active = potentiation of 50% or more; inconclusive = 30% to 50%; inactive = 30% or less;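 further: compound concentration not given in the record; tested on top of an EC20 dose of dopamine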
Target sequence (P14416 whole entry, looked up): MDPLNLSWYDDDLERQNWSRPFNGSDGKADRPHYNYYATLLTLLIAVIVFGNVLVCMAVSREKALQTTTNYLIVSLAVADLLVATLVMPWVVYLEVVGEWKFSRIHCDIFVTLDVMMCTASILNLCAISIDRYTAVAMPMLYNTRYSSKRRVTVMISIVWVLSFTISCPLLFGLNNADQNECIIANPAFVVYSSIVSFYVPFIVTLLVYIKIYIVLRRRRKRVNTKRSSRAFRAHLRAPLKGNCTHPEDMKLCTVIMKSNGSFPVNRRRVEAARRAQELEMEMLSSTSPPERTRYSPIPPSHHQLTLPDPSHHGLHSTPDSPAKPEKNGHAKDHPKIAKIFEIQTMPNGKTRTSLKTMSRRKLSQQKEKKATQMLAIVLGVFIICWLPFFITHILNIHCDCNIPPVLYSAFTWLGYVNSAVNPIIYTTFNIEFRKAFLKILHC
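PathHunter D2 cells, attached overnight at 37 deg C, received compound in DMSO plus dopamine at EC20 (50 nM final) for 90 min at 37 deg C. Beta-arrestin recruitment was read as luminescence after 1 h with detection reagent at ambient temperature.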
D2 ag = human D2 receptor agonism in beta-arrestin assay | activation, % (test concentration not listed) | DiscoveRx PathHunter D2 beta-arrestin, luminescence, 90 min; 100% = 57 uM dopamine signal | actives 0.084% (n = 360,000) | P14416; in the data active = activation above about 40%; inconclusive = about 15% to 40%; inactive = below about 15%; further: compound concentration not given in the record; the text of the record calls up to 30% inactive
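Agonist mode: compounds alone added to overnight-plated D2 PathHunter cells for 90 min at 37 C, with 57 uM final dopamine (EC100) defining full response. Beta-arrestin recruitment detected by chemiluminescent reagent, read after 1 h at ambient temperature.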
PINK1 expr mod = changes PINK1 expression; PINK1 immunofluorescence, high-content cytometry, 24 h; Potency, µM (series often up to 76.6 µM), for inactives: at the highest dose activation (PINK1 increase), usual class: activators; actives 0.2% (n = 410,000); active = well fitted activation curve with a large enough effect; inconclusive = small, poorly fitted or top-dose-only effect; inactive = flat fitted curve, though single readings scatter; cell line not stated here;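 further: potency means the concentration at half of the fitted maximal effect; % of control where 0% means no effect; nearly all actives have a fitted effect of over 65% in size; a mitochondrial uncoupler was the plate control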
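PINK1 protein level read as immunofluorescence by microplate cytometer in a fixed, stained stable cell line after 24 h exposure to five compound concentrations, with CCCP as control.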
TRPML1 agonist = human mucolipin-1 channel agonism; activation, % (test concentration not listed); TRPML1-expressing cells, Ca2+ dye fluorescence, FDSS; host cell line not named in the record; reference of the full effect not given here; actives 0.12% (n = 410,000); Q9GZU1; in the data active = activation above about 50%; inconclusive = about 30% to 50%; inactive = below about 30%; further: 0% is about no effect; the text of the record puts the active cut at 80%
Target sequence (Q9GZU1 whole entry, looked up): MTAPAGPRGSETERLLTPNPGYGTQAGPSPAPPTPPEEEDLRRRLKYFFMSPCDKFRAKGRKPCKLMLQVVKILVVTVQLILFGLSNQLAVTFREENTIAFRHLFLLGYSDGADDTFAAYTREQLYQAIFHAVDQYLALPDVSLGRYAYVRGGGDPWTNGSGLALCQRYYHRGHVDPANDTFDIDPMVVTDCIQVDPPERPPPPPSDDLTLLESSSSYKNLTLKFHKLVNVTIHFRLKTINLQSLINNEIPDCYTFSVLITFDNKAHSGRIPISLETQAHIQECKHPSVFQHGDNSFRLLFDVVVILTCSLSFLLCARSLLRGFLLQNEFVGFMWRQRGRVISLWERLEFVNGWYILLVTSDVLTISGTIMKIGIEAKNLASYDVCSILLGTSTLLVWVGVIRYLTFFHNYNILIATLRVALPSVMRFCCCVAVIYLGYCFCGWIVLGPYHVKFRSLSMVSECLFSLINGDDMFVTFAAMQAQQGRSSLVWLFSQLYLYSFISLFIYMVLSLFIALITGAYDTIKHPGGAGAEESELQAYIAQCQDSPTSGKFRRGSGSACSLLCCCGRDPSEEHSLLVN
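In this qHTS format, compounds were pin-transferred onto Ca8-dye-loaded TRPML1-DL cells induced with Tet overnight, and intracellular Ca2+ fluorescence was recorded kinetically for 110 s after a 10 s baseline. A subsequent 4uM final 54-4 (EC80) addition followed by a second 110 s read served as the antagonist phase.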
CtBP-E1A blk = inhibitors of CtBP/E1A interaction. activity change, % (test concentration not listed). AlphaScreen GST-E1A/His-CtBP binding, 1536-well; hits give low values; control for the full effect not named in the record. actives 0.49% (n = 340,000); in the data active means activity change below about -65%; inconclusive means about -30% to -65%; inactive means above about -30%; further: on the % scale 0 is the no-effect control and ±100 the full control effect; compound concentration not given in the record
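Protein mix (5X: 125 nM each GST-E1A, His-CtBP) was incubated with pinned compound 2 h at 37 deg C in dark, in 50 mM Tris pH 8.0 buffer with 300 mM NaCl. Glutathione donor and nickel acceptor beads followed; AlphaScreen signal read after 1 h.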
Six1-Eya2 inh = inhibitors of human Six1/Eya2 interaction | Q15475+O00167 | activity change, % (test concentration not listed) | AlphaScreen GST-Six1/His-Eya2 binding, biochemical; hits give low values; control for the full effect not named in the record | actives 0.56% (n = 360,000); in the data active = activity change below about -65%; inconclusive = about -30% to -65%; inactive = above about -30%; further: on the % scale 0 is the no-effect control and ±100 the full control effect; compound concentration not given in the record
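Homogeneous AlphaScreen proximity assay pairing GST-Six1 with His-tagged Eya2 (added as 5X mix: 250 nM and 500 nM) in 50 mM Tris pH 8.0, 300 mM NaCl, 1 mM TCEP. Glutathione donor and nickel acceptor beads; 1 h, 37 °C, dark.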
Active calls of the source: *; ? = inconclusive; . = no result given; & = joins results of further samples; [ ] = another dose, or the depositor's remark.

SMILES	D2 PAM	D2 ag	PINK1 expr mod	TRPML1 agonist	CtBP-E1A blk	Six1-Eya2 inh
CCOC(=O)C(CC)Sc1nc2c(c(=O)[nH]c(=O)n2C)n1CCc1ccccc1 (stereo not given)	-11	-1.2	-0.7%	3.7	-2	3
CCNC(=S)N/N=C/c1ccc(OCCOc2ccccc2C)cc1	-8	6.6	?	-0.1	-10	-6
COc1ccc(S(=O)(=O)Cc2ccc(C(=O)N3CC(C)CC(C)C3)o2)cc1 (stereo not given)	1	-0.2	-1.9%	1.5	-2	1
Cc1cccc(C(=O)NCCCNC(=O)c2ccc(C)nc2)c1	-4	-1.2	0.5%	0.0	-4	0
O=C(c1cccs1)N1CCN(Cc2nc(-c3ccccc3)no2)CC1	-16	-1.0	0.9%	-0.5	-2	-26
Cc1cc(C)c(S(=O)(=O)c2cccc(Cl)c2)c(Cl)n1	-2	1.6	1.6%	3.2	3	7
CCOC(=O)C(C(=O)NCCCN1CCOCC1)C1CCCCC1 (stereo not given)	-12	0.0	4.9%	-0.3	9	1
CCOC(=O)c1c(NC2=NS(=O)(=O)c3ccccc32)sc2c1CCC(C)C2 (stereo not given)	-4	-3.1	12%	-0.3	17	14
COc1ccc(NC(=O)c2ccc(NC(=O)CN3CCN(c4ccccc4)CC3)cc2)cc1	-3	0.6	5.1%	-0.6	0	0
Cc1ccccc1CC1(CO)CCCN(Cc2ccn[nH]2)C1 (stereo not given)	-7	-1.0	-2.2%	-0.3	-12	-5
NC(=O)c1ccsc1NC(=O)C1CCCN1S(=O)(=O)c1ccc(Cl)cc1 (stereo not given)	-4	-4.6	-1.2%	0.5	6	0
C[C@H](CO)N1C[C@H](C)[C@@H](CN(C)Cc2ccccc2)Oc2c(NC(=O)C3CC3)cccc2C1=O	-54	-1.2	1.0%	0.5	0	-3
O=C(OC1CC2CC1[C@H]1CCCCN1C2=O)N1CCCCC1 (stereo not given in full)	.	.	-0.7%	-0.7	5	-3
Cc1cccc(/N=C/C2=C(O)CC(C)(C)CC2=O)n1	1	1.6	0.3%	-0.3	17	10
CSc1ncc(Cl)c(C(=O)Nc2cccc(C)c2)n1	-10	-3.3	-0.2%	1.6	13	-20
Cc1ccc(S(=O)(=O)Nc2c(C)cc([N+](=O)[O-])cc2C)cc1	-15	2.1	3.8%	2.2	-6	2
COc1ccc(/C=C(/C(=O)NCc2ccccc2)c2ccccc2)cc1	-10	-2.3	?	3.9	.	0
COc1ccc(OC)c(CN2CCN(S(=O)(=O)c3ccccc3)CC2)c1	-13	-7.8	-0.2%&-0.6%	-0.8&1.9	-1	1
Cc1cccc(N2CCN(C(=S)NC3CCCCC3)CC2)c1C	-12	-4.3	4.9%	-0.1	-14	-1
COc1cc(Cl)c(C)cc1NC(=O)CC1CCCC1	-8	-1.9	3.6%	2.0	18	6
O=C(CP(=O)(c1ccccc1)c1ccccc1)Nn1cnnc1	-10	-5.0	-0.3%	-0.6	3	13
Cc1[nH]c(=O)c(C#N)c2c1COC(C)(C)C2	-3	-2.8	-0.9%	-0.2	-26	-16
CN(C)S(=O)(=O)c1ccc(Cl)c(C(=O)NC2CCCCCCC2)c1	-1	-2.5	6.5%	-0.3	0	13
CCCS(=O)(=O)N1CCN(C(=O)c2ccc(-c3ccccc3)cc2)CC1	5	1.8	1.1%	-1.0	8	11
C[C@@H]1NC(=O)/C(=C\c2ccccc2Cl)NC1=O	-7	0.7	0.1%	0.5	-3	6
COc1ccccc1/C=C/C=N/n1c(C2CCCCC2)n[nH]c1=S	?	2.6	5.4%	0.6	-22	-17
CCCc1ccc(OCC(O)CN2CCc3ccccc3C2)cc1 (stereo not given)	-83	0.6	4.2%	.	.	-7
CN(C)Cc1ccc(F)cc1Sc1cc(Cl)ccc1Cl	-36	-3.0	7.5%	1.5	-22	2
Cc1cc([N+](=O)[O-])ccc1NC(=O)C[n+]1ccc(N(C)C)cc1	-16	-7.0	0.0%	-0.4	8	0
COc1ccccc1NC(=O)c1nn(-c2ccccc2)ccc1=O	-7	-4.7	0.3%	1.5	-15	-8
CCOC(=O)c1ccccc1NC(=O)C1CC(=O)N(C2CCCCC2)C1 (stereo not given)	-5	-3.9	-1.2%	0.0	1	4
Cc1ccc2c(c1)C1CN(C)CCC1N2C(=S)NC(=O)c1ccc(Br)cc1 (stereo not given)	-15	0.1	2.5%	1.5	-1	-5
Cc1ccc(NC(=O)COC(=O)c2cccnc2Cl)cc1S(=O)(=O)N1CCOCC1	-4	-2.1	1.5%	-0.2	-22	0
CC1CCCCC12NC(=O)N(CC(=O)Nc1nccs1)C2=O (stereo not given)	-1	0.7	-0.4%	-0.6	2	6
COc1ccc(CCNC(=O)CCn2c(=O)oc3ccccc32)cc1	-3	-3.2	2.7%	-0.1	7	4
C#CC[N+](C)(C)CCCCCCCCCCCC	-25	-3.6	-2.5%	1.1	6	8
CN(NC1OC(=O)c2ccccc21)c1c([N+](=O)[O-])cc(C(F)(F)F)cc1[N+](=O)[O-] (stereo not given)	6	5.0	1.7%	-0.6	-2	-3
Cc1ccc(C(=O)c2cc([N+](=O)[O-])ccc2N2CCCCC2)cc1	8	-2.8	1.8%	2.3	-11	-16
Cc1ccc(-n2nnnc2CNC(=O)c2ccc(Br)o2)cc1C	-10	-4.0	-0.1%	-0.9	6	2
O=S(=O)(NCCSc1ccccc1)c1cccs1	0	2.5	-1.0%[38.3 µM]	0.7	15	7
COCCN(C(=O)COC(=O)C1=COCCO1)c1c(N)n(Cc2ccccc2)c(=O)[nH]c1=O	-5	-2.4	-0.7%	0.7	-6	5
Cc1ccc(S(=O)(=O)N2CCN(C(=O)c3cc4c(s3)CCCC4)CC2)cc1	-3	-3.4	3.4%	0.3	10	2
O=C(NCCCN1CCOCC1)C(=O)NCc1ccc(Cl)cc1	-5	-3.0	0.0%	-0.6	12	1
CC(C)C1Cc2c(sc(NC(=S)NC(=O)c3ccccc3)c2C#N)CO1 (stereo not given)	-1	-5.2	0.1%	1.0	.	-7
O=C(CN1C(=O)C2CC=C(Cl)CC2C1=O)NCc1ccccc1 (stereo not given)	-2	-2.0	3.2%	5.3	-1	-3
Clc1ccc(OCCN2CCCCC2)c(Cl)c1	-27	-2.1	-2.4%[38.3 µM]	-0.2	5	-1
COc1cc(OC)cc(C(=O)OCC(=O)c2ccc(S(=O)(=O)N3CCCCC3)cc2)c1	-8	0.4	0.7%	0.3	3	1
COc1ccc(C(=O)Nc2ccccc2C(=O)NC(Cc2ccc(O)cc2)C(=O)NNC(=O)c2ccc(C)cc2)cc1 (stereo not given)	-12	2.7	?	0.7	-2	6
CCOC(=O)Cc1csc(NC(=O)Cn2c(=O)oc3ccccc32)n1	-5	2.2	3.8%	1.2	4	3
CC(C)(C)CC(=O)Nc1ccccc1N1CCN(c2ccccc2)CC1	-15	5.7	2.9%	0.6	-7	-14

The listing continues:
SMILES	D2 PAM	D2 ag	PINK1 expr mod	TRPML1 agonist	CtBP-E1A blk	Six1-Eya2 inh
O=C(Nc1ccc(NC(=O)c2sc3ccccc3c2Cl)cc1Cl)c1ccco1	1	2.1	?	-0.1	16	9
O=C(Cc1cc(=O)[nH][nH]1)N/N=C/c1cccc(Cl)c1Cl	-7&-29	-4.8&-2.6	3.2%&0.9%	2.0&-0.1	-14&-8	-3&-21
O=C1c2ccccc2C(=O)c2c1cccc2N1CCOCC1	-35	-18	1.2%	1.9	-72*	-78*
CCCCN(C(=O)c1ccc(S(=O)(=O)N(CC)CC)cc1)c1c(N)n(CCC)c(=O)[nH]c1=O	-2	-1.8	1.2%	-0.8	16	7
COc1ccc(OC)c(S(=O)(=O)Nc2cccc(-c3ccc4nncn4n3)c2)c1	1	5.5	0.8%	-0.5	-6	-8
Cc1ccc(NC(=O)CN(C)C(=O)COC(=O)CNS(=O)(=O)c2ccc(Br)cc2Cl)cc1	-1	-1.4	-2.6%	3.4	-2	-1
CC1CC(C)(C)NC(=S)N1CCCC(=O)Nc1ccc(F)c(F)c1 (stereo not given)	-7	2.7	2.5%	-0.2	-13	0
CC1(C)CC(N2CCCC2)=CC(=[N+]2CCCCC2)C1	-3	-3.3	2.2%	5.3	7	9
Cc1ccc([N+](=O)[O-])cc1NC(=O)C(Sc1ccccc1)c1ccccc1 (stereo not given)	-17	-0.7	8.3%	0.3	17	-1
COc1cccc(-c2noc(CCCC(=O)Nc3ccc(C(N)=O)cc3)n2)c1	-8	-0.8	5.6%	-0.6	.	-1
CCCNC(=S)N1CCC(NC(=O)C2CCCCC2)CC1	-5	-1.4	0.4%	0.8	-2	-1
COc1ccc(CN2CCCC2C(=O)Nc2ccc(OC)c(OC)c2)cc1OC (stereo not given)	-2	-2.0	-2.8%[38.3 µM]	0.3	-10	0
C=CCSc1nc2c(c(=O)[nH]c(=O)n2C)n1Cc1ccccc1	-6	-5.9	-0.1%	1.6	-20	7
Cc1nnc(NC(=O)CSc2ccc(-c3ccco3)nn2)s1	1	-5.4	-0.8%	0.3	-15	-27
CCCCc1nc2cc(C(=O)NC3CCOC(C)(C)C3)ccc2o1 (stereo not given)	-14	0.1	3.2%	-0.5	-10	3
Cc1ccc(OCC(=O)N/N=C/c2ccco2)cc1	-24	-3.3	-4.2%[38.3 µM]	0.3	-2	0
CCOc1ccc2ccccc2c1/C=N/NC(=O)CNC(=O)c1ccccc1O	-18	0.2	2.9%	1.6	1	-5
C[C@H](CO)N1C[C@H](C)[C@@H](CN(C)Cc2ccc(-c3ccccc3)cc2)Oc2c(NS(=O)(=O)c3ccc(F)cc3)cccc2C1=O	-2	1.4	5.8%	0.2	-1	-9
Cc1ccc(C(=O)N/C(=C/c2ccc(-c3ccc(Br)cc3)o2)C(=O)NC2CCS(=O)(=O)C2)cc1 (stereo not given)	11	-6.6	?	-0.3	3	3
COc1ccccc1N1CCN(C(=O)c2ccc3c(c2)CCN3S(C)(=O)=O)CC1	-7	6.4	1.9%	1.4	5	0
Cc1ccc(-n2c(C)cc(C(=O)COc3c(CO)cc(F)cc3CO)c2C)cc1C	-20	-0.2	4.1%	0.4	0	-16
O=C(CN1C(=O)c2ccccc2C1=O)N1CCCCC1	-1	-4.3	-0.9%	-1.1	-2	0

Record cards (already shown):
Profile of `CC1(C)CC(N2CCCC2)=CC(=[N+]2CCCCC2)C1` → D2 PAM = -3; D2 ag = -3.3; PINK1 expr mod = 2.2%; TRPML1 agonist = 5.3; CtBP-E1A blk = 7; Six1-Eya2 inh = 9
Profile of `Cc1ccc(C(=O)c2cc([N+](=O)[O-])ccc2N2CCCCC2)cc1` → D2 PAM = 8; D2 ag = -2.8; PINK1 expr mod = 1.8%; TRPML1 agonist = 2.3; CtBP-E1A blk = -11; Six1-Eya2 inh = -16
